PABP FP inh: PABP-poly(A) binding inhibition; P11940; PABP-poly(A) RNA binding, fluorescence polarization; inhibition, % at 35 µM; actives 1% (n = 290,000); AID 2014;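 active = 50% or more with normal probe brightness, or confirmed in later tests; inconclusive = above 50% with abnormal brightness, or retests that disagree; inactive = below 50% or failed in later tests; about a fifth of its hits are not listed in these tables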;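 note: calls also rest on retests at 20 µM and on dose response follow-up; controls were probe without protein and protein plus probe with vehicle; some compounds called inactive have numbers as strong as hits; many hits fall short of the cut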
eIF4H inh: inhibitors of RNA binding by human eIF4H | Q15056 | eIF4H fluorescence polarization binding assay | inhibition, % at 35 µM | actives 0.94% (n = 290,000);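 active = 50% or more with normal probe brightness, or confirmed in later tests; inconclusive = above 50% with abnormal brightness, or retests that disagree; inactive = below 50% or failed in later tests; about a fifth of its hits are not listed in these tables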;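 note: calls also rest on retests at 20 µM and on dose response follow-up; 0% = protein and probe with vehicle and 100% = probe without protein; strong numbers were not always called active; many hits fall short of the cut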
CSC inhib: cancer stem cell inhibition | cancer stem cell-like cells viability, luminescence | inhibition, % at 7.5 µM | actives 1.1% (n = 300,000);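 active = mean at 75% or more and at least half the replicates too; inconclusive = mean and replicates disagree; tested in HMLE shEcad cells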;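 note: 0% = median of negative and 100% = median of positive control wells; the first replicate is given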
Rce1 inh: yeast Ras-converting enzyme inhibition | Q03530 | yeast membranes, quenched prenylated peptide cleavage fluorescence | calls only | actives 0.27% (n = 290,000) | AID 2563;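 active = fall in fluorescence gain of 50% or more versus controls, with final raw signal at or below 3038400; inconclusive = same 50% fall but final raw signal above 3038400; inactive = fall in fluorescence gain under 50%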;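 note: plate controls were neutral control wells for no effect and wells lacking membranes for full effect; tested at 10 µM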
Target sequence (Q03530 whole entry, looked up): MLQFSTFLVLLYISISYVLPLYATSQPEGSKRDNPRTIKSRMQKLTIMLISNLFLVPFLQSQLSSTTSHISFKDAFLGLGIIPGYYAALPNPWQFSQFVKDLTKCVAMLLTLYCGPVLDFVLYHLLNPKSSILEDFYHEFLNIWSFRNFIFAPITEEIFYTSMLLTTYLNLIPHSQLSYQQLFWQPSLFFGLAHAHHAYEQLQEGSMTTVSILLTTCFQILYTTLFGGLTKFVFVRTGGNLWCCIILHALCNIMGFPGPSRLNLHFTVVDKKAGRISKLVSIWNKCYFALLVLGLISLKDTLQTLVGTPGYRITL
HIV Env fusion: inhibitors of HIV Env-mediated cell fusion; inhibition, % at 12.3 µM; AID 651610; HeLa-JRFL Env/CEM21 cell fusion, luciferase; actives 1.1% (n = 360,000);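 active = mean replicate inhibition score of at least 50 and every replicate individually at or above 50; inconclusive = only one of the two criteria met; inactive = mean below 50 and not all replicates reaching 50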;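 note: 0% = plate neutral controls and 100% = maraviroc near 300 nM; one replicate is shown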
MT1-MMP act inh: MT1-MMP (human) activation inhibition. GFP/RFP ratio change, % at 20 µM. actives 0.061% (n = 360,000). HT1080 RFP-PRO-GFP cells, GFP/RFP ratio fluorescence, overnight; percent of plate control window, DMSO zero. P50281;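 active = GFP/RFP ratio change of at least 30% with cell ATP level not reduced by more than half and red fluorescence within 50% of control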; note: strong numbers were not always called active
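system = RFP-PRO-GFP reporter HT1080 cells | dosing = 20 µM single dose, 1% DMSO | timing = overnight cell settling, then overnight compound exposure, 37 °C, 5% CO2 | read-out basis = GFP/RFP fluorescence ratio | controls = DMSO and RFP-L50D-GFP cell wells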
Yeast UUG start: alters start codon recognition fidelity in yeast. actives 0.13% (n = 350,000). S. cerevisiae UUG-firefly luciferase reporter, luminescence/redox ratio. activity score, % at 18.7 µM;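 active = replicate mean at a twofold rise or more, about +100% in these data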;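 note: firefly luciferase made from a UUG start codon reports start codon fidelity; reporter light over untreated wells divided by growth signal over untreated wells; some hits fall short of that in this replicate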
eIF4H inh retest: also measured in eIF4H inh; calls as there; inhibition, %; compound at 20 µM; confirmation average;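 mean of two retest wells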
PABP FP inh retest: also measured in PABP FP inh; calls as there; inhibition, %; compound at 20 µM; confirmation repeats;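 mean of two retest wells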
MT1-MMP act inh RFP: second read-out of MT1-MMP act inh, no call of its own (marks repeat the call); RFP signal change, %; measured here: RFP expression control read;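 0 = vehicle wells; hits needed this value within 50% of zero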
Starred values were filed as active, the others as inactive; i = inactive; ? = inconclusive; . = no result given; & = joins results of further samples; [ ] = dose if it differs, or a comment.

SMILES | PABP FP inh | eIF4H inh | CSC inhib | Rce1 inh | HIV Env fusion | MT1-MMP act inh | MT1-MMP act inh RFP | Yeast UUG start | others
Cc1ccc2nc(SC(C)C(=O)NC3CCCc4ccccc43)[nH]c2c1 (centres undefined) | 52 | 4 | -2 | . | 1 | -6 | -4 | . | eIF4H inh retest=41;PABP FP inh retest=50
CC1C/C(=N\NC(=S)NCc2ccccc2)CC(C)(C)C1 (centres undefined) | 8 | -3 | 40 | i | 4 | 4 | 0 | -26
CCOCCCNC(=S)N(CCN(CC)CC)Cc1cc2cc3c(cc2[nH]c1=O)OCCO3 | -7 | -5 | 3 | i | -9 | 2 | 7 | -18
COc1ccc(NC(=O)C23CC4CC(C2)CC(n2cnc(Br)n2)(C4)C3)cc1OC | 4 | -1 | -10 | i | . | 8 | -1 | -10
O=Cc1ccc(O)c(O)c1 | -11 | -6 | 22 | i | 10 | 4 | 3 | -12
CSCCC(N=Cc1c(O)n(-c2ccc(F)cc2)c(=O)[nH]c1=O)C(=O)O (centres undefined) | 24 | 5 | . | i | . | . | . | .
CC(C)CN1C(=O)NC(NC(=O)c2cccs2)(C(F)(F)F)C1=O (centres undefined) | 4 | -3 | 2 | i | -7 | -3 | -4 | -4
CCCc1cc(=O)[nH]c(SCC(=O)NC2CCCCCCC2)n1 | . | . | 2 | . | -6 | 6 | 0 | -6
Cc1ccc(NC(=O)CO/N=C(\N)c2ccccc2)cc1C | . | . | 18 | . | . | 2 | 0 | 1
CCO/N=C/c1ccc(OC)c(Oc2nc(OC)cc(OC)n2)c1 | -8 | 6 | 16 | i | -2 | -3 | -3 | .
C[C@H](CO)N1C[C@H](C)[C@@H](CN(C)S(=O)(=O)c2ccccc2)Oc2ccc(NC(=O)CCC(F)(F)F)cc2C1=O | . | . | . | . | -17 | 3 | 3 | 15&6
CN(C)C(=O)c1nc2ccccc2s1 | 3 | 2 | . | i | 6 | -2 | 3 | .
CCN(CC)Cc1c(C(=O)N2CCc3ccccc3C2)nc2ccc(Cl)cn12 | ? | ? | -10 | i | 5 | -2 | 3 | .
Cn1c(CNC(=O)c2ccco2)nnc1SCC(=O)c1ccc(Br)cc1 | 6 | -11 | . | i | 12 | 0 | -1 | -24
CCOC(=O)c1cnc(SCC(=O)Nc2ccc3c(c2)OCCO3)nc1N | -6 | -2 | -4 | i | . | 7 | 4 | -11
COc1ccc(NC(=O)CN(C)S(=O)(=O)c2ccc3c(c2)c(=O)n(C)c(=O)n3C)cc1 | -5 | 3 | -8 | i | 8 | 0 | 1 | -9
CCC(C)(C)NC(=S)Nc1ccc(-c2nc3ccc(C)cc3s2)cc1 | 4 | 2 | 26 | i | -114 | 2 | 4 | -6
Cc1noc(C)c1COc1ccc(C(=O)NNC(=O)c2ccccc2O)cc1 | . | . | 41 | i | -1 | 6 | 2 | -15
CC1CCCN(c2ccc3nc4ccccc4c(=O)n3n2)C1 (centres undefined) | 27 | 10 | -2 | i | 13 | -4 | 2 | .
Cc1ncsc1C(=O)N1CCCC(CNS(=O)(=O)c2cccs2)C1 (centres undefined) | -2 | 0 | -10 | i | 11 | 0 | 2 | .
N#CCCN(Cc1cccnc1)C(=S)NC1CC2C=CC1C2 (centres undefined) | 5 | -6 | . | i | 2 | 2 | 1 | .
COc1ccc(OC)c(CNn2c(-c3cccc(C)c3)nc3ccccc3c2=O)c1 | 1 | 1 | 11 | i | . | -6 | -1 | -35
O=C(CN(C(=O)Cn1nnc(-c2ccc(F)cc2)n1)C1CCCC1)NC1CCCC1 | 6 | -2 | -8 | i | -8 | -1 | -1 | -6
NC(=O)C[n+]1cccc(CNC(=O)c2ccc(OC(F)F)cc2)c1 | 2 | 13 | . | i | 1 | -1 | 3 | 4
O=C(NN1C(=O)C2C(c3ccccc3)C=CC(c3ccccc3)C2C1=O)c1ccncc1 (centres undefined) | 2 | 1 | 6 | i | -26 | 0 | 3 | 1
Carrying on:
SMILES | PABP FP inh | eIF4H inh | CSC inhib | Rce1 inh | HIV Env fusion | MT1-MMP act inh | MT1-MMP act inh RFP | Yeast UUG start | others
COc1ccc(CCNS(=O)(=O)c2ccc3c(c2)NC(=O)C(C)S3)cc1OC (centres undefined) | -11 | -14 | 16 | i | 15 | 6 | -9 | -9
C[C@@H]1CN([C@H](C)CO)C(=O)CCCn2nncc2CO[C@H]1CN(C)Cc1ccncc1 | . | . | . | . | 19[16.7 µM] | 2 | 4 | 7&-9&-7
CC(=O)OCCNc1cc(SC(C)C)c2nonc2c1[N+](=O)[O-] | -8 | -12 | 1 | i | -35 | -3 | -3 | .
O=C(O)COc1ccc(/C=N/O)cc1Br | 4 | -6 | -12 | i | 4 | 2 | 1 | .
COc1ccccc1-c1nc(C(=O)NCC2CCCO2)cc2c1[nH]c1ccccc12 (centres undefined) | 6 | -9 | 7 | i | . | -2 | -3 | -11
CCOC(=O)[C@@H]1[C@H]2COc3cc(OC)ccc3[C@H]2N2C(=O)N(c3cccc(Cl)c3)C(=O)[C@]12C | 0 | -8 | 2 | i | . | -9 | -10 | -9
COc1ccc(/C(N)=N/OC(=O)Cc2ccc(C)cc2)cc1OC | -3 | -3 | 6 | i | 17 | 2 | 3 | .
COc1ccccc1CC(=O)Nc1ccc2c(c1)CCC2 | 0 | -6 | -6 | i | -7 | -1 | 1 | .
S=C1NC2=C(CCC/C2=C\c2ccc(Cl)cc2)C(c2ccc(Cl)cc2)N1 (centres undefined) | -4 | 8 | 3 | i | 38 | 2 | 0 | -26
CCOC(=O)N1CCN(C(=O)COC(=O)COc2c(C)cc(C)cc2C)CC1 | . | . | 7 | i | . | 6 | 7 | -4
COCn1c(-c2ccccc2)nc2ccccc21 | 0 | 4 | -4 | . | -78 | -3 | -1 | -10
COC(=O)c1cccnc1-n1c(=O)c2cccnc2n(CC(=O)Nc2ccc(Br)cc2)c1=O | 0 | -17 | -45 | i | 3 | -1 | 3 | .
COc1ccccc1N1CCN(Cc2cc(=O)oc3ccccc23)CC1 | . | . | . | . | 6 | 0 | -2 | -3
CC(C)(C)OC(=O)C[C@H]1C/C=C\C[C@@H](CC(=O)N[C@H](CO)Cc2ccccc2)C(=O)NC[C@H](c2ccccc2)OC1=O | . | . | -11 | . | 19 | 4 | 3 | 20
CC(C)(C)OC(=O)N1CCN(c2ccc(NC(=O)Cn3nnc(-c4ccccc4)n3)cc2)CC1 | -5 | 2 | 4 | i | -1 | 1 | -6 | -3
Cc1cccc(NC(=S)N2CCN(c3ccccc3F)CC2)c1C | -3 | 2 | -4 | i | 8 | -2 | 3 | -16
Cc1ccc(-c2csc3nc(C)n(-n4c(C)ccc4C)c(=O)c23)o1 | -4 | -1 | -3 | i | . | -6 | -4 | -10
CN(Cc1ccccc1)C1(CNC(=O)CCC(F)(F)F)Cc2ccccc2C1 | -11 | -8 | 5 | i | 9 | -1 | -3 | -7
N#Cc1ccccc1NC(=O)Nc1cccs1 | 0 | -6 | -9 | i | . | -3 | 4 | .
O=C(NCc1ccc(Cl)cc1)C1CCN(S(=O)(=O)c2ccc(F)cc2)CC1 | -6 | -7 | -7 | i | 2 | -6 | -9 | -7
COc1cccc(CNC(=O)c2nnn(CC(=O)Nc3ccc(C)c(C)c3)c2N)c1 | 3 | -4 | -7 | i | -41 | -4 | -3 | -16
CCOC(=O)[C@@H]1[C@H]2COc3cc(OC)ccc3[C@@H]2N2C(=O)N(c3ccc(F)cc3)C(=O)[C@@]12C | . | . | 0 | . | 24 | -4 | -1 | -10
CCCCCc1cc(=O)oc2c(C(CCN3CCCC(C)C3)c3ccc4c(c3)OCO4)c(OC)cc(OC)c12 (centres undefined) | -2 | -15 | 108* | i | 16 | 3 | 0 | 5
O=C(c1cc(COc2ccc(F)cc2Cl)on1)N1CCCCCC1 | 0 | 2 | . | i | -111 | 1 | 3 | 2
O=C(COC(=O)/C=C/c1cccc(Br)c1)NC1CCCCCC1 | . | . | -14 | . | 2 | 0 | 3 | -29
(continued)
SMILES | PABP FP inh | eIF4H inh | CSC inhib | Rce1 inh | HIV Env fusion | MT1-MMP act inh | MT1-MMP act inh RFP | Yeast UUG start | others
CCOCc1cnc(C)nc1NCC(=O)c1c(C)n(C)c2ccc(OC)cc12 | 42 | -5 | . | i | . | 2 | -2 | .
CCn1c2ccc(/C(C)=N\O)cc2c2cc(/C(C)=N\O)ccc21 | 1 | 3 | 26 | i | . | 0 | -2 | -14
CN(C)C(/C=C/Nc1ccc(O)cc1)=C(C#N)C#N | -2 | -4 | -28 | i | 21 | 4 | 8 | .
O=C(Cc1ccc(F)cc1)c1ccc(O)cc1O | 88* | 75* | 13 | i | -71 | -7 | 0 | 19
O=C(CCN1C(=O)C2C3CCC(C3)C2C1=O)Nc1cccc(Cl)c1 (centres undefined) | -2 | 10 | -1 | i | -1 | -3 | -5 | -4
O=c1c2cccnc2[nH]c(=S)n1CCCN1CCN(c2ccc(F)cc2)CC1 | -11 | -2 | -11 | i | -6 | 1 | 2 | -15
CC(C)C(CCNC(=O)CN1C(=O)c2ccccc2C1=O)c1ccco1 (centres undefined) | -6 | -2 | -7 | i | 12 | 0 | 2 | 14
Cc1ccc(C)c(OCc2cc(C(=O)N3CCC(N4CCCC(O)C4)CC3)no2)c1 (centres undefined) | -5 | -11 | 14 | i | -3 | 2 | 3 | 3
CCN(CC(=O)NC(C)(C)C)C(=O)C(c1ccccc1)c1ccccc1 | -9 | 20 | -12 | i | 3 | 2 | 1 | .
CCC1CCCCN1CCCNC(=O)c1ccc(CS(=O)(=O)Cc2ccc(Cl)cc2)o1 (centres undefined) | 2 | 4 | -1 | i | 5 | -3 | 1 | -15
CC(=O)c1cccc(NCC(=O)N2CCN(S(=O)(=O)c3ccccc3)CC2)c1 | . | . | . | . | -1 | -5 | 1 | -5
COC(=O)/C(=C1/Oc2ccc(C)cc2S1)C(F)(F)F | -1 | 1 | 18 | . | -62 | 0 | 6 | .
CC(C)c1cc(NCCOCCO)n2c(nc3ccccc32)c1C#N | 11 | 2 | -4 | i | 0 | 7 | 5 | .
CN1CCN(c2oc(Cc3cccc4ccccc34)nc2C#N)CC1 | -10 | 4 | -9 | i | 5 | -1 | 4 | 2
COc1ccc(NS(=O)(=O)c2ccc(C)c(C(=O)NCC(c3ccco3)N(C)C)c2)cc1 (centres undefined) | . | . | -6 | i | 5 | -3 | 1 | -8
O=C(N/N=C/c1cccc([N+](=O)[O-])c1)c1ccc(COc2ccccc2-c2ccccc2)cc1 | -1 | -9 | -1 | i | -5 | -1 | -4 | .
O=C(O)CCCNC(=O)CC1S/C(=N/N=C/c2ccccc2O)NC1=O (centres undefined) | 4 | 17 | 1 | i | -41 | 1 | 3 | .
Cn1cccc1-c1nc2ccc(NC(=O)c3cccs3)cc2[nH]1 | 5 | 6 | -8 | i | -110 | 6 | -9 | -13
Clc1ccccc1CN1CCN(c2ncccn2)CC1 | 6 | -7 | 4 | i | 3 | 0 | 1 | 0

Among those listed so far, 2 have a nitro group on carbon.
SMILES | PABP FP inh | eIF4H inh | CSC inhib | Rce1 inh | HIV Env fusion | MT1-MMP act inh | MT1-MMP act inh RFP | Yeast UUG start | others
CC(=O)OCCNc1cc(SC(C)C)c2nonc2c1[N+](=O)[O-] | -8 | -12 | 1 | i | -35 | -3 | -3 | .
O=C(N/N=C/c1cccc([N+](=O)[O-])c1)c1ccc(COc2ccccc2-c2ccccc2)cc1 | -1 | -9 | -1 | i | -5 | -1 | -4 | .

Compound activity deposited in PubChem by several laboratories.

The list is partial; count on the stated rates, not on these rows.
